# Sa ugtP lethal: growth inhibition of S. aureus ugtP deletion strain; S. aureus RN4220 ugtP deletion, OD600 growth, 16 h; some inactives read as strong as hits; growth inhibition, % (concentration not given with the values); AID 1259309; actives 0.54% (n = 330,000);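 active = z-score under -3 and OD600 up to 0.15 on both plates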;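 also: plate controls were untreated wells for no effect and antibiotic for full effect; wells of about 80 µL received 100 nL stock; the first replicate is given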
# BJeLR lethal: kills HRASV12-expressing BJeLR cells; actives 0.17% (n = 300,000); AID 1554; inhibition, % (no concentration beside the values); BJeLR (HRASV12) viability, CellTiter-Glo ATP luminescence, 48 h; reference of the scale not given here;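 active = replicate mean above 50%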;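 also: 50 nL library stock added to about 25 µL; numbers are from one replicate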
# Bead autofluor: counter-screen for toxin protease inhibitors: compound fluorescence | compound autofluorescence counterscreen, microsphere flow cytometry; stronger effect = higher value | fluorescence intensity (no concentration beside the values) | actives 3.1% (n = 360,000);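 active = at least 3 SD above the mean of all compounds, about 16000 in these data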;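 also: 100 nL of 1 mM stock went into each well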
# Mtb hypoxia rep: reduces hypoxia-regulated biosensor signal in M. tuberculosis; M. tuberculosis hypoxia-regulated fluorescent reporter, fluorescence; fluorescence inhibition, % (concentration not given with the values); actives 0.1% (n = 300,000);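 active = 35 to 45% if threefold the growth effect, above 45% if 1.5-fold the growth effect; inactive = the rest, general growth blockers included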;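 also: wells of about 50 µL received 100 nL stock; 0% = vehicle wells and 100% = reference inhibitor wells; whole bacteria with a GFP reporter of the hypoxia response; strong numbers were not always called active; many hits fall short of the cut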
# Sa RN4220 lethal: kills Staphylococcus aureus RN4220. actives 0.33% (n = 330,000). S. aureus RN4220 growth, OD600, 16 h. AID 1259311. inhibition, % (no concentration beside the values);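 active = z-score of -3 or lower and OD600 up to 0.18 on both plates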;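 also: plate controls were untreated cells for no effect and reference antibiotic for full effect; stock transfer was 100 nL into about 80 µL; one replicate is shown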
# PrP UTR inh: suppresses PrP 5' UTR mRNA reporter expression; cell-based PrP 5' UTR mRNA reporter, plate reader; actives 0.35% (n = 340,000); inhibition, % (test concentration not listed);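 active = every replicate at 50% or more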;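 also: 0 = median of the neutral control wells; tested in H4 reporter cells; numbers are from one replicate; inactives centre near -14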
# Mtb hypoxia rep growth: further read-out of Mtb hypoxia rep, marked with its call; growth inhibition, %; measured here: M. tuberculosis growth (absorbance);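 0% = vehicle and 100% = reference antibiotic; read after six days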
# * = called active by the depositor; x = no result given; & = joins results of further samples.
# Start of the data: the first 17 compounds, to show the layout:
cpd	Structure	Sa ugtP lethal	BJeLR lethal	Bead autofluor	Mtb hypoxia rep	Mtb hypoxia rep growth	Sa RN4220 lethal	PrP UTR inh
1	COc1ccc(CC(NC(C)=O)C(=O)NC2CCN(C(=O)C3CCCCC3)CC2)cc1OC (stereo not drawn)	x	3	3622	x	x	x	-20
2	CCNC(=O)CC1SC(=Nc2ccc(Cl)cc2)N(CC)C1=O (stereo not drawn)	2	-6	2040	-13	0	4.3	-10
3	CC(=O)Nc1ccc(C(=O)COC(=O)C2CC2)c(F)c1	13	x	x	5	-1	5.2	-78
4	Cc1cc(N)cc(C)c1-c1c(Br)cc(N)cc1Br	26	x	4362	3	3	3.3	-14
5	Cc1nnc(NC(=O)c2ccc3c(c2)C(=O)N(CCC(C)C)C3=O)s1	1	-1	20485*	14	7	5.0	-36
6	Cc1cc(C)cc(NC(=S)NCc2cccnc2)c1	8	-20	2106	0	-2	5.0	-53
7	CCOC(=O)c1ccc(NC(=O)Cn2cccc2)cc1	1	-2	22123*	3	11	0.9	-26
8	Cc1ccc(C(=O)NNC(=O)CSc2nnc(-c3ccncc3)n2-c2ccc(C)cc2)cc1	x	-10	20719*	x	x	x	0
9	CCN(C(=O)CSc1nnc(Nc2ccc(OC)cc2)s1)C1CCS(=O)(=O)C1 (stereo not drawn)	2	x	4124	13	2	1.7	-20
10	CSc1ccc(/C=C2\C(=N)N3N=C(CC(=O)N4CCOCC4)SC3=NC2=O)cc1	9	5	4310	-5	-8	8.3	-15
11	CN=C(NC)SC1CC(=O)N(c2ccccc2)C1=O (stereo not drawn)	-6	1	2459	3	12	2.7	2
12	Cc1ccc(Nc2nc(COC(=O)COc3ccc(C=O)cc3)cs2)cc1	3	4	9566	11	-8	-2.1	-84
13	CCC(C)N(NC(C)=O)c1nc(Cl)nc(NC(C)C)n1 (stereo not drawn)	0	7	4855	x	x	2.5	-16
14	Cc1c(C(=O)O)c(=S)sn1CCOc1ccccc1	0	10	3669	x	x	-4.7	-12
15	Cc1cccc(NC(=O)C2C3CCC4C(CCC32)C4(Cl)Cl)c1 (stereo not drawn)	6	2	8511	2	8	6.8	-32
16	Cn1nnnc1SCCNC(=O)C1CCC(=O)N(Cc2ccccc2F)C1 (stereo not drawn)	-1	1	5194	7	-9	5.5	-4
17	O=C(C1=CC(c2coc3ccccc3c2=O)CC(OCCCCO)O1)N1CCN(Cc2ccccc2)CC1 (stereo not drawn)	-1&4	x	x	4&-3	13&2	0.9&3.2	x

# The whole of this part, previewed entries included:
cpd	Structure	Sa ugtP lethal	BJeLR lethal	Bead autofluor	Mtb hypoxia rep	Mtb hypoxia rep growth	Sa RN4220 lethal	PrP UTR inh
1	COc1ccc(CC(NC(C)=O)C(=O)NC2CCN(C(=O)C3CCCCC3)CC2)cc1OC (stereo not drawn)	x	3	3622	x	x	x	-20
2	CCNC(=O)CC1SC(=Nc2ccc(Cl)cc2)N(CC)C1=O (stereo not drawn)	2	-6	2040	-13	0	4.3	-10
3	CC(=O)Nc1ccc(C(=O)COC(=O)C2CC2)c(F)c1	13	x	x	5	-1	5.2	-78
4	Cc1cc(N)cc(C)c1-c1c(Br)cc(N)cc1Br	26	x	4362	3	3	3.3	-14
5	Cc1nnc(NC(=O)c2ccc3c(c2)C(=O)N(CCC(C)C)C3=O)s1	1	-1	20485*	14	7	5.0	-36
6	Cc1cc(C)cc(NC(=S)NCc2cccnc2)c1	8	-20	2106	0	-2	5.0	-53
7	CCOC(=O)c1ccc(NC(=O)Cn2cccc2)cc1	1	-2	22123*	3	11	0.9	-26
8	Cc1ccc(C(=O)NNC(=O)CSc2nnc(-c3ccncc3)n2-c2ccc(C)cc2)cc1	x	-10	20719*	x	x	x	0
9	CCN(C(=O)CSc1nnc(Nc2ccc(OC)cc2)s1)C1CCS(=O)(=O)C1 (stereo not drawn)	2	x	4124	13	2	1.7	-20
10	CSc1ccc(/C=C2\C(=N)N3N=C(CC(=O)N4CCOCC4)SC3=NC2=O)cc1	9	5	4310	-5	-8	8.3	-15
11	CN=C(NC)SC1CC(=O)N(c2ccccc2)C1=O (stereo not drawn)	-6	1	2459	3	12	2.7	2
12	Cc1ccc(Nc2nc(COC(=O)COc3ccc(C=O)cc3)cs2)cc1	3	4	9566	11	-8	-2.1	-84
13	CCC(C)N(NC(C)=O)c1nc(Cl)nc(NC(C)C)n1 (stereo not drawn)	0	7	4855	x	x	2.5	-16
14	Cc1c(C(=O)O)c(=S)sn1CCOc1ccccc1	0	10	3669	x	x	-4.7	-12
15	Cc1cccc(NC(=O)C2C3CCC4C(CCC32)C4(Cl)Cl)c1 (stereo not drawn)	6	2	8511	2	8	6.8	-32
16	Cn1nnnc1SCCNC(=O)C1CCC(=O)N(Cc2ccccc2F)C1 (stereo not drawn)	-1	1	5194	7	-9	5.5	-4
17	O=C(C1=CC(c2coc3ccccc3c2=O)CC(OCCCCO)O1)N1CCN(Cc2ccccc2)CC1 (stereo not drawn)	-1&4	x	x	4&-3	13&2	0.9&3.2	x
18	CCn1cc(C(=O)N[C@H](C(=O)O)C(C)C)c(=O)c2cc3c(cc21)OCO3	3	-15	3915	3	5	2.5	-18
19	CSc1ncccc1C(=O)Nc1cccc(S(=O)(=O)N2CCCC2)c1	6	x	x	6	5	4.6	x
20	Nc1ccc(-c2cc(-c3cccc(N)c3)nc(-c3ccccc3)n2)cc1	-15	0	2630	15	1	-15	-5
21	O=C(CNS(=O)(=O)c1ccc([N+](=O)[O-])cc1)NN=Cc1ccc(O)cc1	-2	x	x	4	-8	0.8	x
22	O=C1/C(=C/c2ccc(Br)cc2)Oc2cc(O)ccc21	x	1	4405	x	x	x	-20
23	Cc1nc2ncc(Br)cc2[nH]1	6	-7	2010	2	11	6.1	-5
24	CCOc1ccc(C(=O)NCC(=O)OCCCC(=O)c2ccc(F)cc2)cc1OCC	4	x	x	0	-1	3.1	3

# Reprinted at random: two compounds from above
cpd	Structure	Sa ugtP lethal	BJeLR lethal	Bead autofluor	Mtb hypoxia rep	Mtb hypoxia rep growth	Sa RN4220 lethal	PrP UTR inh
24	CCOc1ccc(C(=O)NCC(=O)OCCCC(=O)c2ccc(F)cc2)cc1OCC	4	x	x	0	-1	3.1	3
18	CCn1cc(C(=O)N[C@H](C(=O)O)C(C)C)c(=O)c2cc3c(cc21)OCO3	3	-15	3915	3	5	2.5	-18

# Further structures follow.
cpd	Structure	Sa ugtP lethal	BJeLR lethal	Bead autofluor	Mtb hypoxia rep	Mtb hypoxia rep growth	Sa RN4220 lethal	PrP UTR inh
25	O=C(COc1ncnc2sccc12)Nc1cccc(S(=O)(=O)N2CCOCC2)c1	-3	x	5474	5	9	-1.9	0
26	COc1ccc(-c2cc(C(=O)N(C)Cc3nc4ccccc4c(=O)[nH]3)c3ccccc3n2)cc1OC	-8	x	3513	7	10	-0.2	-18
27	COc1ccc(S(=O)(=O)NCC(=O)N(CC(=O)NCc2ccccc2)Cc2ccco2)cc1	15	-3	3801	0	10	-2.2	-8
28	O=C(Cc1ccc(Cl)c(Cl)c1)Nc1ccc2[nH]c(=O)[nH]c2c1	-1	-9	4494	4	-1	-4.8	-1
29	CCOC(=O)/C(=C/C=C1\Sc2cc(C)c(C)cc2N1CC)C(C)=O	8	-4	16482*	-56	7	13	-1
30	O=c1c(=Cc2ccc(F)cc2)sc2n1CCCN=2	-4	x	x	6	4	4.9	x
31	CC(C)(Oc1ccc(Cl)cc1)C(=O)NC1CC1	5	-5	4904	9	5	1.4	-27
32	Cc1ccc(C2CC(=O)Nc3cc4c(cc32)OCCO4)s1 (stereo not drawn)	1	-3	9289	8	12	3.3	-15
33	O=C(NCc1ccco1)C(c1ccccc1F)N(Cc1cccnc1)C(=O)Cn1nnc2ccccc21 (stereo not drawn)	6	-10	2133	x	x	1.4	-7
34	COc1ccc(NC(=O)c2ccc(Br)o2)c([N+](=O)[O-])c1	2	10	2402	12	12	5.8	-59
35	Cc1ccc2nc(NC(=O)CN3C(=O)NC4(CCCCC4)C3=O)sc2c1	2	1	x	5	-2	2.0	-15
36	Cc1ccc2c3c1C1(C(=O)N3C(C)(C)CC2C)C(C#N)=C(N)Oc2cc(O)ccc21 (stereo not drawn)	-6	-23	4055	6	10	4.9	-14
37	Cc1cc(Br)cc(Br)c1OCC(=O)NNC(=O)CCC(=O)NCc1ccccc1	0	x	5909	-1	9	9.5	-1
38	Cc1ccc(C(=O)Nc2ccccc2C(=O)Nc2ccccn2)cc1Cl	26	26	4015	1	11	-1.6	-18
39	Cn1ncn2c(=O)c3c(nc12)-c1ccccc1CC31CCCC1	0	-12	3901	11	-5	2.5	-24
40	Cc1ccc(CNC(=O)c2ccc(-n3cccc3)cc2)cc1	1	-5	2364	5	6	-2.4	-11
41	O=C(CSc1n[nH]c(-c2ccccc2O)n1)N1CCCc2ccccc21	-9	-14	3742	6	4	5.8	-9
42	C/C=C(/C)C(=O)Nc1cccc(C2=NOC3(C2)C[C@H](C(N)=O)N(C(=O)c2ccccc2)C3)c1 (stereo partly drawn)	x	7	3916	x	x	x	2
43	Cc1cc2[nH]c(=O)c(=O)[nH]c2cc1S(=O)(=O)Nc1cccc(C)c1C	8	-1	5048	3	3	1.4	-9
44	Cc1ccc(Cn2c(N)c(S(=O)(=O)c3cccs3)c3nc4ccccc4nc32)cc1	-4	x	18251*	-2	2	4.3	-2
45	COc1ccc(/C=N/NC(=O)CNc2n[nH]c(=O)[nH]c2=O)cc1OC	x	-15	9739	x	x	x	-17
46	COc1ccc(CNC(=O)CNC(c2ccccc2)c2ccccc2)cc1OC	28	1	2798	3	-7	-1.9	-2
47	COc1ccc(N2CCN(S(=O)(=O)c3ccc(OC)c(C(=O)N4CCCC4)c3)CC2)cc1	-2	-5	3883	-14	4	1.3	-6
48	COc1ccc(O)c(C=NNC(=O)CN2CCS(=O)(=O)CC2)c1	0	x	x	8	-5	1.0	x
49	Cc1ccc(N2C(=O)C3C(C2=O)C2c4ccccc4C=CN2C3C(=O)c2ccco2)cc1 (stereo not drawn)	-3	x	x	9	7	7.9	x
50	O=C(COC(=O)c1cnccn1)Nc1ncc(C(F)(F)F)cc1Cl	-21	x	3866	12	3	1.0	-25
51	CCOC(=O)C(NCc1ccccn1)(NC(=O)c1cccnc1)C(F)(F)F (stereo not drawn)	-17	-5	2187	x	x	13	-10
52	CC1(C)Cc2c(sc3nc4n(c(=N)c23)CCCCC4)CO1	3	31	3260	x	x	1.3	-13
53	Cc1ccccc1C(=O)NNC(=O)/C=C\C(=O)O	-1	5	4008	4	-13	5.9	4
54	S=C(NCCCN1CCOCC1)NC1CC1	11	4	4116	3	7	4.9	0
55	CC1(C)CC(=O)c2cc(NC(=O)c3ccc(F)cc3)c(=O)oc2C1	3	0	4355	0	5	4.0	-19
56	Cc1[nH]c(=O)c(C(=O)/C=C/c2ccccc2F)c2c1CCCC2	-1	-11	11278	9	12	-0.6	-14
57	CC(=O)NS(=O)(=O)c1ccc(NC(=O)c2ccc(NC(=O)c3cccs3)cc2)cc1	6	x	6332	3	-5	1.0	-8
58	CN1C(=O)N(C)C2(c3ccccc3)Nn3c(sc(=Cc4ccccc4)c3=O)=NC12c1ccccc1 (stereo not drawn)	-9	x	x	-5	4	-1.8	x
59	N#CCCCN1C(=O)C(O)(CC(=O)c2ccc3c(c2)OCCO3)c2ccccc21 (stereo not drawn)	-4	-9	2874	22	-16	-13	-5
60	CC(C)NC(=O)NC(=O)CSc1nnc(C(F)(F)F)n1C	13	10	2668	4	-1	8.3	-10
61	N#Cc1cc([N+](=O)[O-])cnc1NCC(O)CO (stereo not drawn)	-2	-2	3828	7	11	0.9	-19
62	Cc1cc(C=NNC(=O)CC(=O)NC2CCCCC2)c(C)n1-c1ccc(Cl)cc1	0	x	x	8	10	-0.2	x
63	O=S(=O)(/C(=C\c1ccc(C(F)(F)F)cc1)c1nc2ccccc2[nH]1)c1ccccc1	11	x	3806	13	17	38	-63
64	Cc1nccn1CCCNC(=O)CC1C(=O)NCCN1Cc1ccc(F)cc1Cl (stereo not drawn)	-3	-11	4032	3	2	-0.1	-8
65	COC(=O)C1=CN(C(C)C)C=C(C(=O)OC)C1c1cccc(OC)c1	2	-4	3262	-18	7	11	-34
